Bioassay records: PubChem BioAssay, Broad Institute
ID4 SMM – binders of human ID4 protein. small molecule microarray, Flag-ID4 binding, fluorescence F/B. AID 624137. 1.2% of 31,000 active. P47928. calls only;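 active = spot signal over background at p below 0.07 in all four prints; compounds were printed on slides so no solution concentration is given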;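 also: a binder raises fluorescence above local background on the spot; about 2 pmol printed per array spot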
Target sequence (P47928 whole entry, looked up): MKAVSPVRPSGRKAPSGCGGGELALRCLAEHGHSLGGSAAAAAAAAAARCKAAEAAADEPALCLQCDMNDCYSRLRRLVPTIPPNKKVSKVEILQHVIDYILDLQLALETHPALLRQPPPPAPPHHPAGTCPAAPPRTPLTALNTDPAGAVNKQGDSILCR
Calls only; i = inactive. Some of the compounds tested; count on the stated rates, not on these rows.

| SMILES | ID4 SMM |
| --- | --- |
| C[C@@H]1CN([C@@H](C)CO)S(=O)(=O)c2ccc(-c3ccc(C(=O)N(C)C)cc3)cc2O[C@@H]1CN(C)Cc1ccccc1C(=O)O | i |
| C[C@H]1CN([C@@H](C)CO)S(=O)(=O)c2ccc(-c3ccccc3F)cc2O[C@H]1CN(C)C | i |
| C[C@@H]1CN([C@@H](C)CO)C(=O)c2cccc(NC(=O)C3CC3)c2O[C@@H]1CN(C)CC1CCCCC1 | i |
| COC(=O)c1c(NC(=S)NC(C)c2ccncc2)sc2c1CCC(C)C2 (configuration not stated) | i |
| CCCN(C)C[C@H]1OCCCC[C@@H](C)Oc2ccc(N(C)C)cc2C(=O)N([C@@H](C)CO)C[C@H]1C | i |
| Cc1ccc(C(=O)CSc2nc(C)nc3sc4c(c23)CCCC4)cc1 | i |
| C[C@@H]1CN([C@H](C)CO)C(=O)c2cc(-c3cccc(F)c3)cnc2O[C@H]1CN(C)Cc1ccncc1 | i |
| C/C=C/c1cnc2c(c1)C(=O)N([C@@H](C)CO)C[C@H](C)[C@H](CN(C)Cc1ccccc1)O2 | i |
| COc1ccc(OC(=O)N(C)C[C@@H]2OCc3ccccc3-c3ccccc3C(=O)N([C@H](C)CO)C[C@@H]2C)cc1 | i |
| CNC[C@@H]1Oc2ncc(C#Cc3cccc(OC)c3)cc2C(=O)N([C@H](C)CO)C[C@@H]1C | i |
| O=C(CSc1nnc(-c2ccccc2F)n1-c1ccc(Cl)cc1)Nc1ccc(F)cc1F | i |
| O=C(CSc1nnc(-c2ccccc2)n1-c1ccc(Cl)cc1)Nc1ccc(Cl)cc1 | i |
| C[C@H]1CN([C@@H](C)CO)S(=O)(=O)c2ccc(C#CC3CCCCC3)cc2O[C@@H]1CN(C)C | i |
| O=C(N[C@H]1CC[C@H](CC(=O)N2CCOCC2)O[C@@H]1CO)c1ccccn1 | i |
| C[C@H]1CN([C@@H](C)CO)S(=O)(=O)c2ccc(C#CC3CC3)cc2O[C@@H]1CN(C)C | i |
| Cc1nnc(SCC(=O)Nc2ccc(Br)c(C)c2C)s1 | i |
| O=C(C[C@H]1CC[C@@H](NC(=O)CC2CC2)[C@@H](CO)O1)NCc1ccc(Cl)cc1 | i |
| C[C@@H]1CN([C@H](C)CO)C(=O)c2cc(-c3cncnc3)cnc2O[C@@H]1CN(C)C(=O)CN1CCOCC1 | i |
| O=C(COc1ccc(C2CCCCC2)cc1)Nc1cccc2ncccc12 | i |
| S=C(NCc1ccccc1)NC(Cc1ccccc1)c1ccccc1 (configuration not stated) | i |
| COc1cccc(-c2nnc(SCC(=O)Nc3cccc(Cl)c3)n2C)c1 | i |
| C[C@H]1CN([C@@H](C)CO)C(=O)c2ccccc2-c2ccccc2CO[C@@H]1CN(C)C(=O)[C@@H]1CCCN1C | i |
| CC(=O)c1c(C)oc2ccc(N(C(=O)c3ccncc3)S(=O)(=O)c3ccc(F)cc3C)cc12 | i |
| CCCN(Cc1cc2cccc(C)c2[nH]c1=O)S(C)(=O)=O | i |
| O=C(c1ccccc1Oc1nc([N+](=O)[O-])nn1Cc1ccccc1F)N1CCCC1 | i |
| O=C(Cc1ccccc1)N[C@@H]1C=C[C@H](CC(=O)N2CCOCC2)O[C@H]1CO | i |
| C[C@H](CO)N1C[C@H](C)[C@@H](CN(C)C(=O)C2CC2)Oc2ncc(C3=CCCC3)cc2C1=O | i |
| Cc1cc(C)c(C)c(OCC(=O)Nc2ccccc2C(N)=O)c1 | i |
| C[C@H]1CN([C@@H](C)CO)C(=O)c2cc(-c3cncnc3)cnc2O[C@H]1CN(C)C(=O)CN1CCOCC1 | i |
| COc1ccc(-c2nn(CCC(=O)O)c3nc(C)cc(C)c23)c(OC)c1 | i |
| C[C@@H]1CN([C@@H](C)CO)C(=O)c2ccccc2-c2ccccc2CO[C@H]1CN(C)C(=O)[C@H]1CCCN1C | i |
| COc1ccc(CN2C(=O)C(O)(CC(=O)c3ccc4ccccc4c3)c3ccccc32)cc1OC (configuration not stated) | i |
| O=C(C[C@H]1C=C[C@@H](NC(=O)C2CC2)[C@@H](CO)O1)NCc1ccncc1 | i |
| COc1ccc(-c2nn3c(Cn4cnc5ccccc54)nnc3s2)cc1OC | i |
| COc1ccc(NC(=O)Cn2cnc3sc(C)c(C)c3c2=O)cc1 | i |
| COc1ccc(NC(=O)N[C@H]2C=C[C@@H](CC(=O)NC3CCC3)O[C@H]2CO)cc1 | i |
| COC(=O)C(CC#Cc1ccc2c(c1)[C@]1(C(=O)N2)[C@H](C(=O)N2CCN(c3ncccn3)CC2)[C@H]2C(=O)O[C@H](c3ccccc3)[C@H](c3ccccc3)N2[C@@H]1c1ccc(O)cc1)C(=O)OC | i |
| Cc1ccccc1OCC(=O)Nc1cccc(C(=O)O)c1 | i |
| Cc1ccc(OCC(=O)Nc2sc(C)c(C)c2C(N)=O)cc1 | i |
| COc1cccc(NC(=O)N[C@H]2CC[C@H](CC(=O)Nc3ccc(-c4ccccc4)cc3)O[C@H]2CO)c1 | i |

Reprinted from the listing, 3 compounds:
| SMILES | ID4 SMM |
| --- | --- |
| C[C@H]1CN([C@@H](C)CO)C(=O)c2cc(-c3cncnc3)cnc2O[C@H]1CN(C)C(=O)CN1CCOCC1 | i |
| COc1ccc(-c2nn(CCC(=O)O)c3nc(C)cc(C)c23)c(OC)c1 | i |
| C[C@@H]1CN([C@@H](C)CO)C(=O)c2ccccc2-c2ccccc2CO[C@H]1CN(C)C(=O)[C@H]1CCCN1C | i |

Next section:
| SMILES | ID4 SMM |
| --- | --- |
| C[C@@H]1CN([C@@H](C)CO)S(=O)(=O)c2ccc(C3=CCCCC3)cc2O[C@@H]1CN(C)CC1CC1 | i |
| C[C@@H]1CN([C@@H](C)CO)C(=O)c2cc(C3=CCCCC3)cnc2O[C@H]1CN(C)C(=O)c1ccc(F)cc1 | i |
| C[C@H]1CN([C@@H](C)CO)S(=O)(=O)c2ccc(C3=CCCC3)cc2O[C@@H]1CN(C)C(=O)Nc1ccc2c(c1)OCO2 | i |
| CCOc1ccccc1OCc1nn2c(-c3ccc(C)cc3)nnc2s1 | i |
| O=C(Nc1ccc(F)cc1)Nc1ccc2c(c1)[C@@H]1C[C@@H](CC(=O)N3CCCCC3)O[C@@H](CO)[C@@H]1O2 | i |
| O=C(C[C@H]1CC[C@H](NC(=O)c2cnccn2)[C@H](CO)O1)NCc1ccccc1F | i |
| CC(C)(CC(=O)O)CC(=O)N1CCN(C2c3ccccc3-c3ccccc32)CC1 | i |
| COc1ccc(Cl)cc1NC(=S)NCCc1c[nH]c2ccccc12 | i |
| CC(C)CC#Cc1ccc2c(c1)O[C@@H](CN(C)Cc1ccc(F)cc1)[C@H](C)CN([C@H](C)CO)S2(=O)=O | i |
| CC(C)c1cn(CC[C@@H]2CC[C@@H](NC(=O)C3CC3)[C@@H](CO)O2)nn1 | i |
| c1coc(CNc2nc3ccccc3n2CCN2CCOCC2)c1 | i |
| COC(=O)c1ccccc1NC(=O)CSC1=NC(c2ccccc2)CC(=O)N1 (configuration not stated) | i |
| CCCN(C)C[C@@H]1Oc2cc(C#Cc3ccc(OC)cc3)ccc2S(=O)(=O)N([C@H](C)CO)C[C@@H]1C | i |
| Cc1c(NC(=O)CN(c2ccc3c(c2)OCCO3)S(C)(=O)=O)c(=O)n(-c2ccccc2)n1C | i |
| COCC(=O)N(C)C[C@@H]1Oc2ncc(/C=C/c3ccccc3)cc2C(=O)N([C@H](C)CO)C[C@@H]1C | i |
| CCCNC(=O)N(C)C[C@H]1Oc2cc(-c3cncnc3)ccc2S(=O)(=O)N([C@H](C)CO)C[C@H]1C | i |
| Cc1ccc2c(c1)nc(NCCCO)n2C | i |
| COc1ccccc1OCC(=O)Nc1cccc(-c2nnc(-c3ccco3)o2)c1 | i |
| CCN(CC(=O)Nc1cccc(C(C)=O)c1)S(=O)(=O)c1ccc(Cl)cc1 | i |
| COc1ccc(OC)c(NC(=O)CSc2nc3sc(C)c(C)c3c(=O)n2-c2ccccc2)c1 | i |
| COCC#Cc1cnc2c(c1)C(=O)N([C@H](C)CO)C[C@H](C)[C@H](CN(C)Cc1ccccc1)O2 | i |
| C[C@@H]1CN([C@@H](C)CO)C(=O)c2cc(Br)cnc2O[C@H]1CN(C)C(=O)c1cccc(F)c1 | i |
| Cc1ccc(C(=O)NCCc2ccc(S(N)(=O)=O)cc2)o1 | i |
| COc1ccccc1-c1ccc2c(c1)O[C@@H](CN(C)C)[C@H](C)CN([C@@H](C)CO)S2(=O)=O | i |
| O=C(CSc1n[nH]c(-c2ccc(Cl)cc2)n1)Nc1ccc(Br)c(Cl)c1 | i |
| O=C(Nc1cccnc1)C1CC(c2ccccc2O)=NO1 (configuration not stated) | i |
| CC(C)CC#Cc1cnc2c(c1)C(=O)N([C@@H](C)CO)C[C@@H](C)[C@H](CN(C)Cc1ccccn1)O2 | i |
| CCCN(C)C[C@H]1Oc2cc(C#CCOC)ccc2S(=O)(=O)N([C@@H](C)CO)C[C@H]1C | i |
| O=C(N[C@@H]1C=C[C@@H](CC(=O)N2CCc3ccccc3C2)O[C@H]1CO)C1CCC1 | i |
| CC(C)C#Cc1cnc2c(c1)C(=O)N([C@@H](C)CO)C[C@@H](C)[C@@H](CN(C)C(=O)CCN1CCCCC1)O2 | i |
| C[C@H]1CN([C@@H](C)CO)C(=O)c2cc(C#CCc3ccccc3)cnc2O[C@@H]1CN(C)C(=O)C1CC1 | i |
| CCc1cc2c(SCC(=O)Nc3cccc(C)c3)ncnc2s1 | i |
| CCCC#Cc1ccc2c(c1)O[C@H](CN(C)S(=O)(=O)c1cccc(OC)c1)[C@H](C)CN([C@H](C)CO)S2(=O)=O | i |
| CN(C)c1ccc2c(c1)[C@@H]1C[C@@H](CC(=O)NCC3CC3)O[C@@H](CO)[C@@H]1O2 | i |
| COC(=O)c1c(NC(=S)Nc2nc(C)cc(C)n2)sc2c1CCC(C)C2 (configuration not stated) | i |
| CCc1ccc(CCC(=O)Nc2ccc(OC)cc2)o1 | i |
| CCn1c(SCC(=O)N2c3ccccc3Sc3ccccc32)nnc1-c1cc(OC)cc(OC)c1 | i |
| O=C(NCC[C@@H]1CC[C@H](NC(=O)C2CCCCC2)[C@H](CO)O1)c1cc(Cl)cc(Cl)c1 | i |
| C[C@H]1CN([C@@H](C)CO)C(=O)c2cc(C#CC3CC3)cnc2O[C@H]1CN(C)C(=O)c1ccc(F)cc1 | i |
| O=C1CC(c2ccccc2)N=C(SCC(=O)Nc2ccc(Cl)cc2)N1 (configuration not stated) | i |
| C/C=C/c1ccc2c(c1)O[C@@H](CN(C)Cc1cccc(F)c1)[C@@H](C)CN([C@H](C)CO)S2(=O)=O | i |
| O=C(N[C@@H]1C=C[C@H](CC(=O)N2CCc3ccccc3C2)O[C@H]1CO)C1CC1 | i |
| C[C@@H]1CN([C@@H](C)CO)C(=O)c2cc(-c3ccc(F)cc3)cnc2O[C@H]1CN(C)Cc1ccccn1 | i |
| CCn1c(SCC(=O)Nc2cccc(SC)c2)nnc1-c1cc2cc(Br)ccc2o1 | i |
| COC(=O)/C(C#N)=C1\NC(C)=NC(SC)=C1C#N | i |
| CCN(CC)S(=O)(=O)c1ccc(Cl)c(C(=O)Oc2ccc(C)cc2-n2nc3ccccc3n2)c1 | i |
| CS(=O)(=O)N(CC(=O)Nc1ccc(C(F)(F)F)cc1)c1cccc(C(F)(F)F)c1 | i |
| CC(C)C#Cc1ccc2c(c1)O[C@@H](CN(C)C)[C@@H](C)CN([C@H](C)CO)S2(=O)=O | i |
| C[C@H](CO)N1C[C@H](C)[C@H](CN(C)Cc2ccccn2)Oc2ncc(-c3cccc(F)c3)cc2C1=O | i |
| CCOc1ccc(NC(=O)C(C)n2nc([N+](=O)[O-])c(Br)c2C)cc1 (configuration not stated) | i |
| CCOc1ccc(C(=O)CSc2nnc(-c3ccncc3)n2-c2ccc(C)cc2)cc1 | i |
| CCOc1ccc(NC(=O)CSc2n[nH]c(-c3ccc(Cl)cc3)n2)cc1 | i |
| O=C(Nc1ccc(F)cc1)N[C@H]1C=C[C@H](CC(=O)N2CCCCC2)O[C@H]1CO | i |
| O=C(O)c1cccc(COc2ccc(CO)cc2Cl)c1 | i |
| COc1ccc(C(O)c2nccn2Cc2ccccc2)cc1OC (configuration not stated) | i |
| O=C(C[C@H]1CC[C@H](NC(=O)C2CCC2)[C@@H](CO)O1)NCC1CC1 | i |

The listing continues:
| SMILES | ID4 SMM |
| --- | --- |
| COc1cc(OC)c(C2=NOC(C(=O)Nc3cnn(C45CC6CC(CC(C6)C4)C5)c3)C2)cc1Cl (configuration not stated) | i |
| COc1ccc([N+](=O)[O-])cc1NC(=O)CN(C)S(=O)(=O)c1ccc(C)cc1 | i |
| O=C(Cn1ccc([N+](=O)[O-])n1)Nc1cc(Cl)cc(Cl)c1 | i |
| Cc1cc(C)n2nc(SCC(=O)Nc3cccc(C(F)(F)F)c3)nc2n1 | i |
| C[C@@H]1CN([C@H](C)CO)S(=O)(=O)c2ccc(C#Cc3ccc(F)cc3)cc2O[C@@H]1CN(C)S(=O)(=O)c1cn(C)cn1 | i |
| CCCN(C)C[C@H]1Oc2cc(/C=C/c3ccccc3)ccc2S(=O)(=O)N([C@H](C)CO)C[C@H]1C | i |
| COCCOC(=O)N1C(=O)[C@@]2(c3cc(C#CC4(O)CCCCCC4)ccc31)[C@H](C(=O)N1CCN(c3ncccn3)CC1)[C@H]1C(=O)O[C@H](c3ccccc3)[C@H](c3ccccc3)N1[C@@H]2c1ccccc1OCCO | i |
| COc1ccc(OC)c(S(=O)(=O)N(C)CC(=O)N2CCOCC2)c1 | i |

Of the compounds above, these have a nitro group on carbon:
| SMILES | ID4 SMM |
| --- | --- |
| O=C(c1ccccc1Oc1nc([N+](=O)[O-])nn1Cc1ccccc1F)N1CCCC1 | i |
| CCOc1ccc(NC(=O)C(C)n2nc([N+](=O)[O-])c(Br)c2C)cc1 (configuration not stated) | i |
| COc1ccc([N+](=O)[O-])cc1NC(=O)CN(C)S(=O)(=O)c1ccc(C)cc1 | i |
| O=C(Cn1ccc([N+](=O)[O-])n1)Nc1cc(Cl)cc(Cl)c1 | i |

(continued)
| SMILES | ID4 SMM |
| --- | --- |
| CCS(=O)(=O)N[C@@H]1CC[C@@H](CC(=O)NCC2CC2)O[C@H]1CO | i |
| O=C(NCc1ccco1)c1cc2cc(Br)ccc2oc1=O | i |
| CSc1ccccc1NC(=O)CN(c1ccc(Cl)cc1)S(C)(=O)=O | i |
| CCCCC/C=C/C(=O)CCc1ccc(O)c(OC)c1 | i |
